E coli growth: E. coli growth inhibition, primary screen, OD600. Escherichia coli growth, 23 h; hits give low values. OD600 absorbance (no concentration beside the values). hit rate 0.21% among 330,000;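 active = OD600 absorbance below the run mean of sample wells minus 3.6 SD, in any replicate, cut at about 0.56 in these data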;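 also: stock transfer was 300 nL into about 60 µL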
AF4-AF9 inh: inhibitors of AF4 peptide binding to AF9, primary screen, biochemical, AlphaScreen, biotin-AF4 peptide, FLAG-AF9, single point | hit rate 0.47% among 350,000 | inhibition, % at 10 µM | AID 651704, 2012;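 active = every replicate reaching a set inhibition limit, whatever the replicate mean, cut at about 25% in these data; inconclusive = mean inhibition reaches that limit but some replicates miss it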;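 also: 0% = plate neutral control median and 100% = total signal loss; the record names both 10 and 1 µM as test concentration; the first replicate is given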
Target sequence (P42568 whole entry, looked up): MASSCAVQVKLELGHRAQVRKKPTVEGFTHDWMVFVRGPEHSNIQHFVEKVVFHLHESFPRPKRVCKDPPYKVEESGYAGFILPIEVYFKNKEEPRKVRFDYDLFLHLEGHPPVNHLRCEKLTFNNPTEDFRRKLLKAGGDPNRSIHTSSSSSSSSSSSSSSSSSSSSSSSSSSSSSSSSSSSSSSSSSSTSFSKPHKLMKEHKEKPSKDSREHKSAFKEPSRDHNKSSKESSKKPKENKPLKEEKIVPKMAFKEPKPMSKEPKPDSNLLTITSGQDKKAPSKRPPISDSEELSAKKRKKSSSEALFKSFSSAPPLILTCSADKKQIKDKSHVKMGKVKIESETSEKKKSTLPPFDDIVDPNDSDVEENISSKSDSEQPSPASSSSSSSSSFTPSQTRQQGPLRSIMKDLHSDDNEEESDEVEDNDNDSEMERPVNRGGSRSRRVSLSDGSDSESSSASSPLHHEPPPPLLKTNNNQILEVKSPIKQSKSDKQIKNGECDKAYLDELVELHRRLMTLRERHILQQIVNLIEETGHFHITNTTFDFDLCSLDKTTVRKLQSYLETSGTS
rRNA inh HTS: reduced GFP signal of wild-type E. coli, primary screen, bacterial rRNA inhibitor project, GFP/RFP fluorescence, OD600, single point; E. coli WT GFP vs humanized-ribosome RFP mutants, 24 h; hits give low values; DMSO median 0, no signal -100; GFP signal change (wild-type ribosome), % (concentration not given with the values); hit rate 1.6% among 350,000;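 active = significant combined selectivity score with lowered wild-type GFP, culture density cut under 30%, mutant RFP and density less affected; inactive = any of these conditions unmet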; also: one replicate is shown; some compounds called inactive have numbers as strong as hits
FGF22 binding: binders of human FGF22 protein, primary screen, FGF22 synaptogenesis inhibitor project, biophysical, thermal shift, single point. Fibroblast growth factor 22 (Homo sapiens), Q9HCT0. recombinant FGF22 thermal shift, SYPRO orange fluorescence; percent of sucrose octasulfate shift, DMSO zero. calls only at 9.99 µM. hit rate 1.5% among 340,000;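 active = melting point raised past a set limit in the mean and every replicate; inconclusive = no clear call; three in four hits are not shown here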
Vif A3G: inhibitors of Vif binding to APOBEC3G peptide, primary screen, biochemical, TR-FRET, GST-Vif 1-94, biotin-A3G peptide, dose response retest (AID 1117319); TR-FRET GST-Vif / biotin-A3G peptide binding; higher % means a stronger effect; test concentration not given here; strong numbers were not always called active; inhibition, %, or IC50 in µM where a hit was titrated; hit rate 0.57% among 260,000;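 active = above the screen mean plus three standard deviations and confirmed in dose response; inconclusive = results disagree or hit not tested in dose response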;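 also: Vif residues 1-94 fused to GST binding biotinylated APOBEC3G peptide 110-148; 0% = full assay without inhibitor and 100% = GST in place of GST-Vif; retest series ran down from 100 µM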
HNF4A DNA FP: change in binding of human HNF4A to DNA, primary screen, biochemical, fluorescence polarization, FITC-DNA; activity change, % at 10 µM; AID 1224865, 2016; hit rate 0.3% among 360,000; Hepatocyte nuclear factor 4-alpha (Homo sapiens), P41235; 1 h; in the data active = activity change above about 30%, passing the limit was not always enough;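 also: controls were the assay level and a saturating level of protein; the project sought stronger binding though the title names inhibitors; some compounds called inactive have numbers as strong as hits; positive values seem to mean higher polarization but the record does not say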
Target sequence (P41235 whole entry, looked up): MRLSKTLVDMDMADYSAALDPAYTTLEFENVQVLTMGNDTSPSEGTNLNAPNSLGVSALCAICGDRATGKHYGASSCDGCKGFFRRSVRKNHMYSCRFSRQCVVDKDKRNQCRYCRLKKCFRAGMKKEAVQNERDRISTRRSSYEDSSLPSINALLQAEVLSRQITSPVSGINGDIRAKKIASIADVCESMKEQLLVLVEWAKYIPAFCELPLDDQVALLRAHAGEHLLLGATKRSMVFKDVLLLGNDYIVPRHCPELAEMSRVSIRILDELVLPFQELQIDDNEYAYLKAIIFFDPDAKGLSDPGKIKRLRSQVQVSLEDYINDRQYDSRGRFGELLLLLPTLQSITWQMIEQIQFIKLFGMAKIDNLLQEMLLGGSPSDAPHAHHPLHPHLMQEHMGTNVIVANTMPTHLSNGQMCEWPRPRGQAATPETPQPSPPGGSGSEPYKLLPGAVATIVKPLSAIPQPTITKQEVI
ALR inh: inhibitors of human ALR sulfhydryl oxidase, primary screen, biochemical, H2O2 detection, HRP-luminol luminescence, single point. FAD-linked sulfhydryl oxidase ALR (Homo sapiens), P55789. purified ALR, DTT oxidation. inhibition, % (no concentration beside the values). hit rate 3.8% among 290,000. AID 485317, 2010;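 active = mean and each replicate at 75% or more; inconclusive = only one of the two met; inactive = neither met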;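 also: stock transfer was 7.5 nL into about 7.5 µL; 0% = neutral wells and 100% = wells with inactivated enzyme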
rRNA inh HTS OD600: recorded beside rRNA inh HTS, whose call it bears; OD600 change, %; measured here: OD600 growth;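 optical density of the mix in the first replicate; 0 = DMSO median and -100 = no signal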
rRNA inh HTS RFP: also measured in rRNA inh HTS; calls as there; RFP signal change, %; measured here: RFP humanized mutant strains;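 first replicate; 0 = DMSO median and -100 = no signal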
* marks the source's active call; other numbers are inactive results; i = inactive; ? = inconclusive; · = not tested or not shown; & = joins results of further samples. These rows are one share of the data (hit frequency here may not be typical).

molecule	E coli growth	AF4-AF9 inh	rRNA inh HTS	rRNA inh HTS OD600	rRNA inh HTS RFP	FGF22 binding	Vif A3G	HNF4A DNA FP	ALR inh
O=S(=O)(c1ccccc1)N1CCCc2nc(-c3ccc(Br)cc3)ccc21	·	-0.6	15	18	1.5	·	·	·	·
COc1ccc(C(=O)C2CCCN(Cc3ccc4c(c3)OCCO4)C2)cc1F (stereo not drawn)	0.63	-8.1	-5	-7	-7.1	i	·	1.2	0
O=C(Nc1cccc(F)c1)Nc1ccc(Cl)cn1	0.67	2.9	3	15	-0.1	i	·	0.1	-3
O=C(CN1CCN(c2ccccc2O)CC1)NNC(=O)c1ccc(Cl)cc1	0.72	2.9	·	·	·	i	23%	1.3	·
O=C(NNc1c(Cl)cccc1Cl)c1cccs1	0.64	-0.1	·	·	·	i	-14%	-2.5	·
C[C@@H]1CN([C@@H](C)CO)C(=O)c2cc(C3=CCCC3)cnc2O[C@H]1CN(C)C(=O)Cc1ccncc1	·	-0.6	9	4	-1.1	i	·	·	·
COc1ccccc1OCC(=O)NNC(=O)Nc1ccc(Cl)cc1	0.64	-1.4	-22	-18	-6.4	·	-3%	4.7	-1
CC12CN(C(=O)c3ccccc3)C3(C#N)CC1CCC23C (stereo not drawn)	0.78	·	·	·	·	·	6%	1.2	-13
O=c1c2ccccc2ncn1-c1ccc(Cl)cc1[N+](=O)[O-]	0.65	-1.9	5	-6	-1.6	·	·	-0.7	-47
C[C@@H]1CN([C@@H](C)CO)C(=O)c2cc(-c3ccccc3F)cnc2O[C@H]1CN(C)Cc1ccc(F)cc1	·	-0.2	-4	-2	1.1	i	·	·	·
CCCC#Cc1ccc([C@H]2[C@@H](C#N)N(C(=O)C3CCC3)[C@@H]2CO)cc1	·	-0.6	1	-1	0.0	i	·	·	·
CCc1nc2sc3c(c2c(=O)n1N)CC(C)(C)OC3	0.68	0.3	6	6	0.7	i	-3%	1.7	6

Continued:
molecule	E coli growth	AF4-AF9 inh	rRNA inh HTS	rRNA inh HTS OD600	rRNA inh HTS RFP	FGF22 binding	Vif A3G	HNF4A DNA FP	ALR inh
CC1(c2cccc(Br)c2)NC(=O)N(CC(=O)NC2CCCCC2)C1=O (stereo not drawn)	0.69	-1.2	6	3	2.6	i	·	-1.3	·
O=C(Nc1cccc(Cl)c1)N1C[C@@H]2[C@H](c3ccccc31)[C@H](CO)N2Cc1ccccc1Cl	·	1.7	-16	-43	-1.1	i	·	·	·
C/C(=N\NC(=O)c1c[nH]c2ccccc12)c1ccccn1	·	2.4	-15	12	19	i	·	-2.1	·
O=C(/C=C/c1ccccc1F)c1cccc([N+](=O)[O-])c1	0.71	·	·	·	·	·	-5%	5.0	9
CNC(=O)COC(=O)c1cccnc1SC	0.73	·	·	·	·	·	26%	-2.0	·
Cc1cc(C)n(CCCNC(=O)c2ccc(S(=O)(=O)NCc3ccco3)cc2)n1	0.68	·	7	7	3.6	·	3%	0.7	-14
C=CCNc1sc(C(=O)C2CC2)c(N)c1C#N	0.77	·	·	·	·	·	1%	3.9	-3
Cn1c(CNC(=O)CNC(=O)c2ccccc2F)cc(=O)n(C)c1=O	0.66	-4.6	-16	-20	1.3	i	·	-2.9	1
Cc1cc(C)n2nc(SCC(=O)N(C)c3c(N)n(Cc4ccccc4)c(=O)[nH]c3=O)nc2n1	0.69	·	·	·	·	·	-7%	2.6	2
O=C(CCNS(=O)(=O)c1ccccc1Cl)OCc1nnc(-c2ccccc2Cl)o1	0.67	-9.0	0	-33	0.8	i	6%	-2.9	-5
N#Cc1cccc(-c2ccc([C@H]3[C@H]4CN(C(=O)Nc5ccccc5)CCCCN4[C@H]3CO)cc2)c1	·	-2.4	-1	-6	5.1	i	·	·	·
CC(O)[C@H]1CNC(=O)C(=O)N1CCc1cccc(F)c1 (stereo partly drawn)	·	-1.5	17	13	0.6	i	·	-0.6	·

More entries follow.
molecule	E coli growth	AF4-AF9 inh	rRNA inh HTS	rRNA inh HTS OD600	rRNA inh HTS RFP	FGF22 binding	Vif A3G	HNF4A DNA FP	ALR inh
CC(C)C(c1nnnn1C1CCCC1)N(C)C1CCCCC1 (stereo not drawn)	0.66	·	·	·	·	·	2%	-5.4	-3
COc1ccccc1S(=O)(=O)N[C@H]1CC[C@@H](CC(=O)N2CCCCC2)O[C@@H]1CO	·	-15	0	9	-0.3	i	·	·	·
O=C(CN1CCCC1)Nc1ccc(OCc2ccccc2)cc1	0.65	-0.6	-4	-2	-0.3	i	-1%	3.0	-2
CCCS(=O)(=O)N1CCCC(C(=O)NCCCN2CCN(c3cccc(Cl)c3)CC2)C1 (stereo not drawn)	0.71	·	·	·	·	·	0%	0.7	·
Cc1ccc(CN2CCN(c3ccccn3)CC2)s1	0.65	·	·	·	·	·	-1%	-2.9	-2
CN1c2ccccc2N(C)C1(C)c1cccc2ccccc12	0.69	·	·	·	·	·	?	8.0	13
CCOC(=O)c1c(NC(=O)CN2CCCCC2)sc(CN(C)C)c1-c1ccccc1	0.68	24	-49	-77	-11	i	-4%	-4.0	-4
O=C(Nc1ccc(Oc2cccnc2)cc1)C1CCCCN1Cc1ccc(CO)o1 (stereo not drawn)	0.68	-1.1	6	8	-1.4	i	·	2.9	-2
O=C(NCc1ccco1)c1ccc2sc([C@H]3C[C@H](O)[C@@H](CO)O3)nc2c1	·	-3.8	·	·	·	i	·	-4.4	·
CC(C)NC(=O)N(C)C[C@H]1Oc2ccc(NC(=O)Cn3cnnn3)cc2CC(=O)N([C@H](C)CO)C[C@@H]1C	·	-0.8	4	3	-2.8	i	·	·	·
CCn1c(SCC(=O)Nc2ccc3c(c2)c2ccccc2n3CC)nnc1-c1ccco1	0.65	·	·	·	·	·	32%	-30	5
COc1cccc(/C=N/NC(=O)Cn2ccnc2C)c1	·	-2.0	7	15	-3.6	i	21%	3.0	-1

Further structures.
molecule	E coli growth	AF4-AF9 inh	rRNA inh HTS	rRNA inh HTS OD600	rRNA inh HTS RFP	FGF22 binding	Vif A3G	HNF4A DNA FP	ALR inh
Cc1cc(-c2nnc(CSc3nnc(NC(=O)c4ccc(C(C)(C)C)cc4)s3)o2)ccc1[N+](=O)[O-]	0.71	·	6	0	-1.0	i	-5%	-1.4	·
C[C@@H]1CN([C@@H](C)CO)C(=O)c2cc(NC(=O)Nc3ccc(C(F)(F)F)cc3)ccc2O[C@@H](C)CCCCO[C@H]1CN(C)Cc1ccc2c(c1)OCO2	·	3.6	1	-6	1.5	i	·	·	·
Cc1ccc(C2CC(c3cccc(Cl)c3)n3nc(N)nc3N2)cc1 (stereo not drawn)	0.76	-1.0	-7	-11	-3.9	i	64%	0.7	0
O=C(CCC(=O)OCc1ccc(Br)cc1)Nc1ccccc1	0.64	-18	10	11	-4.4	i	1%	-4.3	-5
CCOc1ccccc1NC(=O)c1ccccc1NS(C)(=O)=O	0.69	·	·	·	·	·	3%	-5.7	-3
CCCCN(C)C(=O)CC(NS(=O)(=O)c1ccc(NC(C)=O)cc1)C(C)C (stereo not drawn)	0.72	0.7	3	11	-0.9	i	·	-0.2	-13
COC(=O)/C(C#N)=C1/C=Cc2ccccc2N1C	0.69	·	·	·	·	·	-2%	4.8	1
CC(=O)NC1C(Oc2ccccc2C)OC2COC(c3ccco3)OC2C1O (stereo not drawn)	0.67	-4.8	8	12	4.1	i	13%	-2.2	0
CCOc1ccc(-c2nc(CSCC(=O)N3CCN(C(=O)c4ccco4)CC3)c(C)o2)cc1	0.71	6.8	1	1	-1.8	i	9%&-10%	2.8	99*
COc1ccc(Cl)cc1NC(=O)COC(=O)Cc1cccs1	0.64	-3.8	2	-1	-1.3	i	5%	1.3	-3
O=C(O)/C=C/c1cn(-c2ccccc2)nc1-c1ccc2c(c1)OCCO2	0.65	7.6	-8	-4	1.3	i	1%	1.9	6
O=C(COC(=O)Cn1cnc2ccccc21)Nc1cc(S(=O)(=O)N2CCOCC2)ccc1Cl	0.63	1.2	6	9	4.5	i	·	4.8	-2

The list continues:
molecule	E coli growth	AF4-AF9 inh	rRNA inh HTS	rRNA inh HTS OD600	rRNA inh HTS RFP	FGF22 binding	Vif A3G	HNF4A DNA FP	ALR inh
O=C(Nc1cccc([N+](=O)[O-])c1)C12CC3CC(C1)CC(n1cnc([N+](=O)[O-])n1)(C3)C2	0.76	·	·	·	·	·	-1%	1.1	-17
Nc1ccc(S(=O)(=O)Nc2nccc(/C=C/c3cccc(Br)c3)n2)cc1	0.7	-1.5	4	9	-3.8	i	·	-0.5	4
Cc1ccc(Nc2ccc(N)cc2S(=O)(=O)O)cc1	0.68	-0.3	11	24	1.1	i	32µM*	1.7	100*
O=S1(=O)N=CN(Cc2cccc(F)c2)c2ccccc21	0.67	·	·	·	·	·	-2%	-1.1	2
CN(C)C(=O)c1cc(C(=O)Cc2ccccc2)c[nH]1	0.65	-1.6	11	-2	1.8	i	6%	-1.3	-6
C[C@@H]1CN([C@H](C)CO)C(=O)c2cc(NC(=O)c3ccncc3)ccc2O[C@@H](C)CCCCO[C@H]1CN(C)C(=O)Nc1cccc2ccccc12	·	-1.4	-2	-6	2.1	i	·	·	·
Cc1cccc(S(=O)(=O)N[C@@H]2CC[C@H](CCn3cc(-c4ccccn4)nn3)O[C@H]2CO)c1	·	1.2	-2	-5	-0.8	i	·	·	·
O=C(NCc1ccncc1)C(=O)NCC1OCCN1S(=O)(=O)c1ccc(F)cc1 (stereo not drawn)	0.7	0.8	23	20	1.7	i	0%	4.8	-11
N#Cc1nc(-c2ccc(Cl)cc2)oc1N1CCCCC1	0.65	·	·	·	·	·	-1%	-1.1	1
CCOc1cc(NC(=O)c2ccccn2)c(OCC)cc1NC(=O)c1ccc(Cl)cc1	0.68	-3.4	13	12	0.9	i	10%	3.0	-2
Cc1noc(C)c1NC(=O)N(C)C[C@@H]1OCCCC[C@H](C)Oc2ccc(NC(=O)C3CCCCC3)cc2C(=O)N([C@@H](C)CO)C[C@@H]1C	·	-1.5	1	8	-1.7	i	·	·	·
CN1c2ccc(Br)cc2[C@@H]2[C@@H](CCN2C(=O)C2CCOCC2)[C@@H]1CO	·	-2.8	2	2	0.8	i	·	·	·
CCOc1ccccc1NC(=O)CCC(=O)Nc1ccccc1OCC	0.74	·	·	·	·	·	0%	0.5	0
Cc1cnc(C(=O)Nc2ccc(C(C)C)cc2)cn1	0.71	-3.0	-2	-11	-13	i	4%	-9.5	·
O=C(CSc1ncccc1C(=O)O)c1cccc(C(F)(F)F)c1	0.67	1.9	4	2	-1.4	i	-5%	56*	13

Ordered by SMILES length (high to low): part of the list above.
molecule	E coli growth	AF4-AF9 inh	rRNA inh HTS	rRNA inh HTS OD600	rRNA inh HTS RFP	FGF22 binding	Vif A3G	HNF4A DNA FP	ALR inh
O=C(Nc1cccc([N+](=O)[O-])c1)C12CC3CC(C1)CC(n1cnc([N+](=O)[O-])n1)(C3)C2	0.76	·	·	·	·	·	-1%	1.1	-17
CCOc1ccccc1NC(=O)CCC(=O)Nc1ccccc1OCC	0.74	·	·	·	·	·	0%	0.5	0
N#Cc1nc(-c2ccc(Cl)cc2)oc1N1CCCCC1	0.65	·	·	·	·	·	-1%	-1.1	1
Cc1cnc(C(=O)Nc2ccc(C(C)C)cc2)cn1	0.71	-3.0	-2	-11	-13	i	4%	-9.5	·
